Screening results: PubChem BioAssay, several laboratories
HIV Env fusion: HIV envelope-mediated fusion inhibition; 360,000 compounds, 1.1% hits; AID 651610; HeLa-JRFL Env/CEM21 cell fusion, luciferase; inhibition, % at 12.3 µM;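 active means mean replicate inhibition score of at least 50 and every replicate individually at or above 50; inconclusive means only one of the two criteria met; inactive means mean below 50 and not all replicates reaching 50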;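 further: 0% = plate neutral controls and 100% = maraviroc near 300 nM; one replicate is shown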
Rce1 inh: yeast Ras-converting enzyme inhibition. 290,000 compounds, 0.27% hits. calls only. Q03530. yeast membranes, quenched prenylated peptide cleavage fluorescence;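 active means fall in fluorescence gain of 50% or more versus controls, with final raw signal at or below 3038400; inconclusive means same 50% fall but final raw signal above 3038400; inactive means fall in fluorescence gain under 50%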;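 further: plate controls were neutral control wells for no effect and wells lacking membranes for full effect; tested at 10 µM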
Target sequence (Q03530 whole entry, looked up): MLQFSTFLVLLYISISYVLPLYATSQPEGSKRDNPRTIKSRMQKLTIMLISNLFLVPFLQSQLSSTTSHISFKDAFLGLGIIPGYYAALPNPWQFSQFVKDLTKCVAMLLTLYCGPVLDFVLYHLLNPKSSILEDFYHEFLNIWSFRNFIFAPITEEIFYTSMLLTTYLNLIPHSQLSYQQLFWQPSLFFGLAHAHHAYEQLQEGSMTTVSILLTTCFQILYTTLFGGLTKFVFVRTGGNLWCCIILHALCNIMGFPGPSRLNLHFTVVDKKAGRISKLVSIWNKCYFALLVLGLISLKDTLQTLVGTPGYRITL
CSC inhib: cancer stem cell inhibition. 300,000 compounds, 1.1% hits. inhibition, % at 7.5 µM. AID 2717. cancer stem cell-like cells viability, luminescence;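 active means mean at 75% or more and at least half the replicates too; inconclusive means mean and replicates disagree; tested in HMLE shEcad cells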;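 further: 0% = median of negative and 100% = median of positive control wells; the first replicate is given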
PABP polyA inh: PABP-poly(A) binding inhibition; PABP-poly(A) RNA binding, fluorescence polarization; AID 2014; inhibition, % at 35 µM; 290,000 compounds, 1% hits;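 active means 50% or more with normal probe brightness, or confirmed in later tests; inconclusive means above 50% with abnormal brightness, or retests that disagree; inactive means below 50% or failed in later tests; about a fifth of its hits are not listed in these tables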;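 further: calls also rest on retests at 20 µM and on dose response follow-up; controls were probe without protein and protein plus probe with vehicle; some compounds called inactive have numbers as strong as hits; many hits fall short of the cut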
Target sequence (P11940 whole entry, looked up): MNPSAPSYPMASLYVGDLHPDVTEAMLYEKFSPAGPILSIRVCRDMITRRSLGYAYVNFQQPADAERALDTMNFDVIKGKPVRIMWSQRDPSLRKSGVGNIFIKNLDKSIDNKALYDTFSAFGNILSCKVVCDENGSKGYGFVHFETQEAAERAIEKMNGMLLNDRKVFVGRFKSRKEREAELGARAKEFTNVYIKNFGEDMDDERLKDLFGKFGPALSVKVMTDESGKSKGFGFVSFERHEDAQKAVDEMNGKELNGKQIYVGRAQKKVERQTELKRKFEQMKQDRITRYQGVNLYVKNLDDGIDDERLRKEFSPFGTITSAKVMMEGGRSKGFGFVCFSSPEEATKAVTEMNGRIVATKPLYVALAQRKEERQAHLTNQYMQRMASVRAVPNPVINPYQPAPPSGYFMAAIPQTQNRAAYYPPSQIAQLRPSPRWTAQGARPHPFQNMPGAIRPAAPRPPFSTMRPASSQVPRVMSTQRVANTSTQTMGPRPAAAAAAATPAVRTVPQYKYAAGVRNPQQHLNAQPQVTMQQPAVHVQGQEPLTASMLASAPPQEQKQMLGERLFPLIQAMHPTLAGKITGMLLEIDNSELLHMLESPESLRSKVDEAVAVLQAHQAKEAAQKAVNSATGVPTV
MT1-MMP act inh: inhibitors of human MT1-MMP activation; GFP/RFP ratio change, % at 20 µM; P50281; HT1080 RFP-PRO-GFP cells, GFP/RFP ratio fluorescence, overnight; percent of plate control window, DMSO zero; AID 651647; 360,000 compounds, 0.061% hits;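 active means GFP/RFP ratio change of at least 30% with cell ATP level not reduced by more than half and red fluorescence within 50% of control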; further: strong numbers were not always called active
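Assay system – RFP-PRO-GFP reporter HT1080 cells · Compound dosing – single dose of 20 µM compound, 1% DMSO final · Incubation – overnight compound exposure at 37 °C · Measure – GFP/RFP fluorescence ratio · Benchmarks – DMSO wells and RFP-L50D-GFP cells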
eIF4H inh: inhibitors of RNA binding by human eIF4H. Q15056. 290,000 compounds, 0.94% hits. eIF4H fluorescence polarization binding assay. inhibition, % at 35 µM;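 active means 50% or more with normal probe brightness, or confirmed in later tests; inconclusive means above 50% with abnormal brightness, or retests that disagree; inactive means below 50% or failed in later tests; about a fifth of its hits are not listed in these tables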;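 further: calls also rest on retests at 20 µM and on dose response follow-up; 0% = protein and probe with vehicle and 100% = probe without protein; strong numbers were not always called active; many hits fall short of the cut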
Yeast UUG start: yeast start codon fidelity modulation; 350,000 compounds, 0.13% hits; AID 602363; activity score, % at 18.7 µM; S. cerevisiae UUG-firefly luciferase reporter, luminescence/redox ratio;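 active means replicate mean at a twofold rise or more, about +100% in these data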;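 further: firefly luciferase made from a UUG start codon reports start codon fidelity; reporter light over untreated wells divided by growth signal over untreated wells; some hits fall short of that in this replicate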
MT1-MMP act inh RFP: second read-out of MT1-MMP act inh, no call of its own (marks repeat the call); RFP signal change, %; measured here: RFP expression control read;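 0 = vehicle wells; hits needed this value within 50% of zero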
The depositor's hits bear a star. Some of the compounds tested; count on the stated rates, not on these rows.

`CCCCn1c(N)c(N(CC)C(=O)CN2C(=O)NC(C)(c3ccccc3)C2=O)c(=O)[nH]c1=O` (configuration not stated) gave HIV Env fusion 11, Rce1 inh inactive, CSC inhib -5, PABP polyA inh 14, MT1-MMP act inh -4, eIF4H inh 8, Yeast UUG start -6 and MT1-MMP act inh RFP -1.
Cc1ccccc1OCCSc1nnc(C)n1-c1ccccc1 was read as HIV Env fusion -214, Rce1 inh inactive, CSC inhib -1, PABP polyA inh 1, MT1-MMP act inh 4, eIF4H inh 0, Yeast UUG start -10 and MT1-MMP act inh RFP 3.
`S=c1[nH]nc(-c2cccs2)n1/N=C/c1cn(-c2ccccc2)nc1-c1cccs1` gave HIV Env fusion -83, Rce1 inh inactive, CSC inhib 22, PABP polyA inh 2, MT1-MMP act inh 1, eIF4H inh 8, Yeast UUG start 7 and MT1-MMP act inh RFP -2.
For Cc1ccc(C)c(N2CCN(C(=O)CSc3ccsc3[N+](=O)[O-])CC2)c1 the results were HIV Env fusion 18, Rce1 inh inactive, CSC inhib 3, PABP polyA inh 10, MT1-MMP act inh 5, eIF4H inh 22, Yeast UUG start -17 and MT1-MMP act inh RFP -3.
`Cc1ccccc1OCC1Cc2c(nc(N)c(C#N)c2N)O1` (configuration not stated) gave CSC inhib -7, PABP polyA inh -2, MT1-MMP act inh 9, eIF4H inh -4, Yeast UUG start -10 and MT1-MMP act inh RFP 7.
CN(CC(=O)Nc1ccc(F)c(F)c1F)C(=O)/C=C/c1ccc(Cl)cc1 was read as HIV Env fusion -12, Rce1 inh inactive, CSC inhib -3, PABP polyA inh 4, MT1-MMP act inh 3, eIF4H inh -6, Yeast UUG start -2 and MT1-MMP act inh RFP 5.
Screening CCOC(=O)c1cc(C)sc1NC(=O)C1CCC1 returned HIV Env fusion -51, Rce1 inh inactive, CSC inhib -17, PABP polyA inh 6, MT1-MMP act inh -4, eIF4H inh -3, Yeast UUG start -5 and MT1-MMP act inh RFP -1.
CCOc1ccccc1CNC(=O)Cn1c(=O)oc2ccccc21 was read as HIV Env fusion -23, Rce1 inh inactive, CSC inhib 0, PABP polyA inh -7, MT1-MMP act inh -3, eIF4H inh -11, Yeast UUG start -8 and MT1-MMP act inh RFP 0.
Screening Clc1nnc(N2CCCCC2)c2ccccc12 returned HIV Env fusion 17, Rce1 inh inactive, CSC inhib 7, PABP polyA inh 0, MT1-MMP act inh -1, eIF4H inh -8, Yeast UUG start 4 and MT1-MMP act inh RFP 2.
For CCN(C(=O)CN1CCC(C(=O)OC)CC1)c1c(N)n(Cc2ccccc2)c(=O)[nH]c1=O the results were CSC inhib -12, MT1-MMP act inh -2, Yeast UUG start -8 and MT1-MMP act inh RFP 0.
`Cc1c(C(=O)Nc2cccc(S(=O)(=O)N3CCOCC3)c2)oc2ccc(Br)cc12` gave HIV Env fusion 14, CSC inhib 16, MT1-MMP act inh -1, Yeast UUG start -5 and MT1-MMP act inh RFP -7.
For O=C(CCS(=O)(=O)c1ccc(Br)cc1)N1CCN(c2ccccc2)CC1 the results were CSC inhib -5, PABP polyA inh 9, MT1-MMP act inh 0, eIF4H inh 18, Yeast UUG start -13 and MT1-MMP act inh RFP -1.
For COCCNC(=S)N/N=C/c1ccc2c(c1)OCCO2 the results were HIV Env fusion 4, Rce1 inh inactive, CSC inhib -16, PABP polyA inh -8, MT1-MMP act inh -6, eIF4H inh -8 and MT1-MMP act inh RFP 1.
For O=C(OCC(=O)N1CCOCC1)c1ccc2ccccc2c1O the results were HIV Env fusion -38, CSC inhib 0, MT1-MMP act inh -4, Yeast UUG start -2 and MT1-MMP act inh RFP -2.
`O=C(NCc1ccccc1)c1c[nH]c2ccc(F)cc2c1=O` gave HIV Env fusion -5, Rce1 inh inactive, CSC inhib 31, PABP polyA inh -6, MT1-MMP act inh -1, eIF4H inh -8, Yeast UUG start 13 and MT1-MMP act inh RFP 0.
COc1ccc(OC)c(NC(=O)c2cc(S(=O)(=O)N3CCCCC3)c[nH]2)c1 was read as Rce1 inh inactive, CSC inhib -8, PABP polyA inh -2, MT1-MMP act inh 2, eIF4H inh 2, Yeast UUG start -16 and MT1-MMP act inh RFP -6.
`CCOC(=O)CCNc1n[nH]c(=O)[nH]c1=O` gave Rce1 inh inactive, CSC inhib -9, PABP polyA inh 17, MT1-MMP act inh 5, eIF4H inh 2, Yeast UUG start -7 and MT1-MMP act inh RFP 2.
Cc1cc(C)nc(/N=c2/ssnc2Cl)c1 was read as Rce1 inh inactive, CSC inhib -7, PABP polyA inh 23, MT1-MMP act inh 1, eIF4H inh 0, Yeast UUG start -22 and MT1-MMP act inh RFP 15.
Screening CCOc1ccc(CCNC(=O)c2sc3nc4n(c(=O)c3c2C)CCC4)cc1OCC returned HIV Env fusion 7, Rce1 inh inactive, CSC inhib -15, PABP polyA inh 1, MT1-MMP act inh 1, eIF4H inh 6, Yeast UUG start -8 and MT1-MMP act inh RFP 1.
Cc1ccc(NC2=NCCCCC2)cc1 was read as HIV Env fusion -7, Rce1 inh inactive, CSC inhib 1, PABP polyA inh 3, MT1-MMP act inh 8, eIF4H inh -10, Yeast UUG start -12 and MT1-MMP act inh RFP 7.
CCCCOc1ccc(C2(C)NC(=O)NC2=O)cc1 (configuration not stated) was read as HIV Env fusion 3, CSC inhib 1, PABP polyA inh 6, MT1-MMP act inh 1, eIF4H inh -2, Yeast UUG start -3 and MT1-MMP act inh RFP 0.
Screening CCN(CC)C(=O)c1cccc(-c2csc(C(NC(C)=O)c3ccc(F)c(F)c3)n2)c1 (configuration not stated) returned HIV Env fusion -14, MT1-MMP act inh -1, Yeast UUG start -3 and MT1-MMP act inh RFP -4.
`CC1(C)CC(=O)C2=C(C1)N(Cc1ccco1)C(=O)C2(NC(=O)c1ccc(Cl)cc1Cl)C(F)(F)F` (configuration not stated) gave HIV Env fusion 23, Rce1 inh inactive, CSC inhib -1, PABP polyA inh -4, MT1-MMP act inh -5, eIF4H inh -3, Yeast UUG start -7 and MT1-MMP act inh RFP 2.
`Cc1cc(/C=C(\C#N)c2nc3ccccc3[nH]2)c(C)n1C` gave HIV Env fusion -100, Rce1 inh inactive, CSC inhib 1, PABP polyA inh 13, MT1-MMP act inh 1, eIF4H inh inconclusive, Yeast UUG start -13 and MT1-MMP act inh RFP -8.
Cc1ccc(CNC(=O)C2CC(c3cccc([N+](=O)[O-])c3)=NO2)cc1 (configuration not stated) was read as HIV Env fusion 24, Rce1 inh inactive, CSC inhib 48, PABP polyA inh -3, MT1-MMP act inh 0, eIF4H inh 12, Yeast UUG start -9 and MT1-MMP act inh RFP 2.
`COc1ccccc1C(=O)n1nc(-c2ccco2)nc1SC` gave HIV Env fusion 14, Rce1 inh inactive, CSC inhib 8, PABP polyA inh -2, MT1-MMP act inh -1, eIF4H inh -5 and MT1-MMP act inh RFP -1.
`COc1ccc(/C=N/NC(=O)OC(C)(C)C)cc1OC` gave Rce1 inh inactive, CSC inhib 1, PABP polyA inh 10, MT1-MMP act inh 2, eIF4H inh -6 and MT1-MMP act inh RFP 2.
For O=C(c1cc(=O)c2ccccc2o1)N1CCN(c2cccc(Cl)c2)CC1 the results were HIV Env fusion 6, Rce1 inh inactive, CSC inhib 9, PABP polyA inh -7, MT1-MMP act inh -1, eIF4H inh 1 and MT1-MMP act inh RFP -2.
For CC(=O)NC1(C(F)(F)F)C(=O)N(Cc2ccccc2)C2=C1C(=O)CC(C)(C)C2 (configuration not stated) the results were HIV Env fusion -5, Rce1 inh inactive, CSC inhib -4, PABP polyA inh 8, MT1-MMP act inh 0, eIF4H inh 0, Yeast UUG start -19 and MT1-MMP act inh RFP 2.
For CCCCCN1C(=O)Cn2c(nc3ccccc3c2=O)C1C (configuration not stated) the results were HIV Env fusion -2, Rce1 inh inactive, CSC inhib -6, PABP polyA inh 12, MT1-MMP act inh -9, eIF4H inh -6 and MT1-MMP act inh RFP -2.
For CCc1n[n+](CC(=O)c2ccccc2)c(N)s1 the results were HIV Env fusion 16, PABP polyA inh 9, MT1-MMP act inh 0, eIF4H inh 26 and MT1-MMP act inh RFP 0.
`CC(C)Cc1nc2sc3c(=O)[nH]cnc3c2c2c1CCCC2` gave HIV Env fusion 14, Rce1 inh inactive, CSC inhib -3, PABP polyA inh -15, MT1-MMP act inh -1, eIF4H inh -6 and MT1-MMP act inh RFP 4.
CCOC(=O)c1ccc(NC(=O)Nn2cnnc2)cc1 was read as HIV Env fusion -3, Rce1 inh inactive, CSC inhib -5, PABP polyA inh -3, MT1-MMP act inh 1, eIF4H inh -12, Yeast UUG start -16 and MT1-MMP act inh RFP 2.
For O=c1c(Cl)c(N/N=C/c2ccc(Br)cc2)cnn1-c1ccccc1 the results were HIV Env fusion -39, Rce1 inh inactive, CSC inhib -6, PABP polyA inh -2, MT1-MMP act inh -6, eIF4H inh -19, Yeast UUG start -18 and MT1-MMP act inh RFP -1.
For Cn1c(=O)n(C)c2cc(/C=C3/SC(=O)N(CC(=O)N4CCOCC4)C3=O)ccc21 the results were HIV Env fusion -52, Rce1 inh inactive, CSC inhib -1, PABP polyA inh -3, MT1-MMP act inh 10, eIF4H inh -1 and MT1-MMP act inh RFP 6.
`CN(C)CCNC(=O)c1cc(Sc2ccc(F)cc2)nc2ccccc12` gave Rce1 inh inactive, CSC inhib 6, PABP polyA inh 10 and eIF4H inh 0.
C=CCSc1nnc(NC(=O)c2ccc(Cl)nc2)s1 was read as HIV Env fusion -24, Rce1 inh inactive, CSC inhib 0, PABP polyA inh 2, MT1-MMP act inh 12, eIF4H inh -9, Yeast UUG start -24 and MT1-MMP act inh RFP -3.
Screening CCc1cc(C(=O)OCC(=O)N2CCC(c3ccccc3)=N2)sc1C returned Rce1 inh inactive, CSC inhib -17, PABP polyA inh -12, MT1-MMP act inh 2, eIF4H inh -7, Yeast UUG start -10 and MT1-MMP act inh RFP 0.
`CCCCOP(=O)(c1ccc(N(C)C)cc1)C(O)c1ccncc1` (configuration not stated) gave HIV Env fusion -36, Rce1 inh inactive, PABP polyA inh 3, MT1-MMP act inh 3, eIF4H inh -3, Yeast UUG start -10 and MT1-MMP act inh RFP 8.
Screening CN(C)C(=O)C(Sc1ccc(S(=O)(=O)N2CCCC2)cn1)c1ccccc1 (configuration not stated) returned HIV Env fusion 2, MT1-MMP act inh 4, Yeast UUG start -6 and MT1-MMP act inh RFP 2.
`CC(=O)Nc1ccc(N2C(=O)CC(Sc3nc(C)cc(C)n3)C2=O)cc1` (configuration not stated) gave HIV Env fusion -24, Rce1 inh inactive, CSC inhib -12, PABP polyA inh 4, MT1-MMP act inh 4, eIF4H inh -8, Yeast UUG start -13 and MT1-MMP act inh RFP 4.
N#CC1=C(N)Oc2n[nH]c(-c3ccncc3)c2C1c1ccsc1 (configuration not stated) was read as HIV Env fusion -8, Rce1 inh inactive, CSC inhib -5, PABP polyA inh 1, MT1-MMP act inh -2, eIF4H inh 5, Yeast UUG start -17 and MT1-MMP act inh RFP -2.
`COc1ccc(CN2CCN(C(=O)CC(C)C)CC2)cc1OC` gave Rce1 inh inactive, CSC inhib -7, PABP polyA inh 6, MT1-MMP act inh 0, eIF4H inh 1, Yeast UUG start -19 and MT1-MMP act inh RFP 3.
